Assay outcomes as filed in PubChem.
UUG fidelity – modulators of start codon recognition fidelity in yeast | S. cerevisiae UUG-firefly luciferase reporter, luminescence/redox ratio | activity score, % at 18.7 µM | 350,000 compounds, 0.13% hits;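 active means replicate mean at a twofold rise or more, about +100% in these data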;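 further: firefly luciferase made from a UUG start codon reports start codon fidelity; reporter light over untreated wells divided by growth signal over untreated wells; some hits fall short of that in this replicate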
HIV Env fusion – HIV envelope-mediated fusion inhibition; 360,000 compounds, 1.1% hits; inhibition, % at 12.3 µM; HeLa-JRFL Env/CEM21 cell fusion, luciferase;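 active means mean replicate inhibition score of at least 50 and every replicate individually at or above 50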;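 further: 0% = plate neutral controls and 100% = maraviroc near 300 nM; one replicate is shown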
* = called active by the depositor; [ ] = remark or other dose.

SMILES	UUG fidelity	HIV Env fusion
C[C@H](CO)N1C[C@H](C)[C@H](CN(C)Cc2cccnc2)Oc2cc(C#CC3CCCC3)ccc2S1(=O)=O	15.2	7.8[16.7 µM]
C[C@@H]1CN([C@@H](C)CO)S(=O)(=O)c2ccc(C3=CCCC3)cc2O[C@H]1CN(C)C(=O)c1ccccc1	12.1	9.9[16.7 µM]
C[C@H]1CN([C@@H](C)CO)S(=O)(=O)c2ccc(C#CCC3CCCC3)cc2O[C@@H]1CN(C)Cc1ccc(C(=O)O)cc1	7.7	23.6[16.7 µM]
C[C@@H]1CN([C@H](C)CO)C(=O)c2cc(NS(=O)(=O)c3ccc(F)cc3)ccc2O[C@H]1CN(C)Cc1ccc(C(F)(F)F)cc1	-7.2	71.5*[16.7 µM]
C[C@@H]1CN([C@@H](C)CO)S(=O)(=O)c2ccc(C#CC3CCCCC3)cc2O[C@H]1CN(C)C	43.2	34.8[16.7 µM]
C[C@@H]1CCCCO[C@H](CN(C)Cc2ccc(C(=O)O)cc2)[C@@H](C)CN([C@@H](C)CO)C(=O)c2cc(NC(=O)Nc3cccc4ccccc34)ccc2O1	6.2	-2.6[16.7 µM]
O=C(N[C@@H]1CC[C@@H](CCn2cc(C3(O)CCCC3)nn2)O[C@H]1CO)C1CCC1	-8.0	-13.3[16.7 µM]
CCC(=O)N[C@H]1CC[C@H](CC(=O)NCc2cc(F)cc(F)c2)O[C@@H]1CO	-9.6	-10.2[16.7 µM]
Cn1cnc(S(=O)(=O)N[C@H]2CC[C@H](CC(=O)Nc3ccc(-c4ccccc4)cc3)O[C@H]2CO)c1	-11.2	-17.9[16.7 µM]
C[C@@H]1CN([C@H](C)CO)S(=O)(=O)c2ccc(-c3ccncc3)cc2O[C@@H]1CN(C)CC1CC1	-14.7	-17.9[16.7 µM]
Cc1noc(C)c1NC(=O)Nc1ccc2c(c1)C(=O)N([C@H](C)CO)C[C@@H](C)[C@H](CN(C)Cc1ccncc1)OCCCC[C@H](C)O2	-1.8	6.8[16.7 µM]
CN1CCN(C(=O)C[C@H]2CC[C@@H]3[C@H](COc4ccc(NC(=O)c5cccs5)cc4C(=O)N3C)O2)CC1	-10.8	-12.9[16.7 µM]
C[C@@H]1CN([C@H](C)CO)C(=O)Cc2cc(NC(=O)Cc3cn(C)c4ccccc34)ccc2O[C@@H]1CN(C)Cc1ccc(Oc2ccccc2)cc1	-2.6	-132.4[16.7 µM]
C[C@@H]1CN([C@H](C)CO)C(=O)c2cc(C#CC3CCCCC3)cnc2O[C@@H]1CN(C)C(=O)c1ccncc1	-4.3	-12.7[16.7 µM]
C[C@H](CO)N1C[C@H](C)[C@H](CN(C)C(=O)Cc2ccccc2)Oc2ncc(-c3cncnc3)cc2C1=O	-9.0	-51.7[16.7 µM]
CN(C)CC(=O)N[C@H]1C=C[C@H](CC(=O)NCc2ccccc2F)O[C@H]1CO	-2.9	1.1[16.7 µM]
Cc1noc(C)c1NC(=O)Nc1ccc2c(c1)C(=O)N([C@@H](C)CO)C[C@@H](C)[C@H](CN(C)C(=O)Nc1c(C)noc1C)OCCCC[C@H](C)O2	-2.9	5.1[16.7 µM]
Cc1ccc(-c2ccc3c(c2)O[C@@H](CN(C)Cc2cncnc2)[C@H](C)CN([C@@H](C)CO)S3(=O)=O)cc1	-10.3	23.9[16.7 µM]
C[C@@H]1CN([C@@H](C)CO)S(=O)(=O)c2ccc(-c3ccccc3)cc2O[C@@H]1CN(C)C(=O)Nc1ccccc1F	-18.9	-1.0[16.7 µM]
O=C(C[C@@H]1CC[C@H](NC(=O)CN2CCOCC2)[C@@H](CO)O1)NCCc1ccccc1	-4.9	-2.0[16.7 µM]
Cc1ccc(S(=O)(=O)N[C@@H]2CC[C@@H](CCn3cc(C(C)C)nn3)O[C@@H]2CO)cc1	-1.8	-17.1[16.7 µM]
CC(=O)N(C)C[C@H]1Oc2ncc(-c3ccc(C(=O)N(C)C)cc3)cc2C(=O)N([C@@H](C)CO)C[C@H]1C	7.7	7.6[16.7 µM]
O=C(NCC[C@@H]1CC[C@H](NC(=O)C2CCC2)[C@H](CO)O1)c1ccc(F)cc1	21.7	-16.7[16.7 µM]
C[C@H](CO)N1C[C@H](C)[C@@H](CN(C)C(=O)Nc2ccc(F)cc2)Oc2c(NS(=O)(=O)c3cn(C)cn3)cccc2C1=O	-1.4	35.7[16.7 µM]
C[C@H](CO)N1C[C@H](C)[C@@H](CN(C)S(=O)(=O)c2ccc(F)cc2)Oc2cc(C#Cc3ccc(F)cc3)ccc2S1(=O)=O	-29.7	-3.9[16.7 µM]
SMILES	UUG fidelity	HIV Env fusion
COc1ccc(CN(C)C[C@H]2OCCCC[C@@H](C)Oc3ccc(NS(=O)(=O)c4ccc(OC)cc4)cc3C(=O)N([C@@H](C)CO)C[C@@H]2C)cc1	13.8	-146.9[16.7 µM]
CC(C)C#Cc1cnc2c(c1)C(=O)N([C@@H](C)CO)C[C@@H](C)[C@@H](CN(C)C(=O)Nc1cccc(F)c1)O2	13.0	3.2[16.7 µM]
COc1cccc(S(=O)(=O)N(C)C[C@H]2Oc3ncc(C#CCN(C)C)cc3C(=O)N([C@@H](C)CO)C[C@@H]2C)c1	-2.9	-3.0[16.7 µM]
COc1ccc(CN(C)C[C@@H]2Oc3c(NS(=O)(=O)c4ccccc4)cccc3C(=O)N([C@@H](C)CO)C[C@H]2C)cc1	3.4	-17.0[16.7 µM]
O=C(NCC[C@H]1CC[C@@H](NC(=O)C2CCCCC2)[C@H](CO)O1)c1ccc(F)cc1	-4.0	-14.8[16.7 µM]
O=C(C[C@@H]1C=C[C@H](NC(=O)c2ccc3c(c2)OCO3)[C@@H](CO)O1)NCc1ccc(Oc2ccccc2)cc1	-0.9	10.9[16.7 µM]
Cc1ccccc1S(=O)(=O)N[C@H]1CC[C@@H](CCn2cc(Cc3ccccc3)nn2)O[C@H]1CO	-2.1	0.4[16.7 µM]
C/C=C/c1ccc2c(c1)O[C@H](CN(C)C(=O)C1CCCCC1)[C@H](C)CN([C@@H](C)CO)S2(=O)=O	0.6	30.8[16.7 µM]
C[C@H](CO)N1C[C@H](C)[C@H](CN(C)C(=O)CCC(F)(F)F)OCCCC[C@H](C)Oc2ccc(NC(=O)Cc3ccccc3)cc2C1=O	5.5	-3.4[16.7 µM]
COc1ccc(S(=O)(=O)Nc2ccc3c(c2)C(=O)N([C@H](C)CO)C[C@@H](C)[C@H](CN(C)C(=O)Nc2ccc(C(F)(F)F)cc2)OCCCC[C@@H](C)O3)cc1	-10.0	-48.4[16.7 µM]
C[C@H](CO)N1C[C@H](C)[C@H](CN(C)C(=O)C2CCOCC2)Oc2cc(-c3ccc(F)cc3)ccc2S1(=O)=O	15.7	2.2[16.7 µM]
C[C@H]1CCCCO[C@H](CN(C)C(=O)NC2CCCCC2)[C@@H](C)CN([C@@H](C)CO)C(=O)c2cc(NC(=O)CCC(F)(F)F)ccc2O1	-0.5	19.7[16.7 µM]
CNC[C@H]1OCCCC[C@@H](C)Oc2ccc(NS(=O)(=O)c3c(C)noc3C)cc2C(=O)N([C@H](C)CO)C[C@H]1C	-0.2	-6.1[16.7 µM]
O=C(C[C@H]1C[C@H]2c3cc(NS(=O)(=O)c4ccccc4)ccc3O[C@H]2[C@H](CO)O1)NCC1CC1	10.4	27.9[16.7 µM]
C[C@H](CO)N1C[C@H](C)[C@H](CN(C)C(=O)C2CC2)Oc2ncc(-c3ccccc3F)cc2C1=O	5.9	9.6[16.7 µM]
CC(C)NC(=O)Nc1cccc2c1O[C@@H](CN(C)S(=O)(=O)c1cn(C)cn1)[C@@H](C)CN([C@@H](C)CO)C2=O	-1.9	18.1[16.7 µM]
N#C[C@H]1N[C@@H](CO)[C@H]1c1ccccc1	-7.7	2.1[16.7 µM]
N#C[C@@H]1[C@@H](c2ccc(C3=CCCCC3)cc2)[C@H](CO)N1C(=O)C1CCOCC1	6.3	10.4[16.7 µM]
C[C@@H]1CCCCO[C@H](CN(C)C(=O)CCC(F)(F)F)[C@@H](C)CN([C@@H](C)CO)C(=O)c2cc(NC(=O)Cc3ccccc3)ccc2O1	18.6	-10.6[16.7 µM]
COc1ccccc1C#Cc1ccc([C@H]2[C@@H](C#N)N(C(=O)C3CCC3)[C@H]2CO)cc1	4.2	-1.4[16.7 µM]
C[C@H]1CN([C@@H](C)CO)C(=O)c2cccc(NC(=O)Nc3cccc4ccccc34)c2O[C@H]1CN(C)C(=O)Nc1ccc2c(c1)OCO2	19.2	-6.8[16.7 µM]
COc1ccc(CN(C)C[C@@H]2OCCCC[C@@H](C)Oc3ccc(NC(=O)Nc4cccc5ccccc45)cc3C(=O)N([C@H](C)CO)C[C@@H]2C)cc1	8.2	-10.5[16.7 µM]
CCCNC(=O)N[C@@H]1CC[C@@H](CCn2cc(C3CCCC3)nn2)O[C@@H]1CO	0.7	11.3[16.7 µM]
C[C@@H]1CN([C@@H](C)CO)C(=O)c2cccc(NC(=O)C3CC3)c2O[C@H]1CN(C)Cc1ccncc1	2.7	-15.3[16.7 µM]
C[C@@H]1CN([C@@H](C)CO)C(=O)c2cc(-c3ccccc3)cnc2O[C@@H]1CN(C)C(=O)Nc1ccccc1	4.0	5.7[16.7 µM]

Profiles, quoted from the list. Values in the order: UUG fidelity | HIV Env fusion
Shown for COc1ccc(S(=O)(=O)Nc2ccc3c(c2)C(=O)N([C@H](C)CO)C[C@@H](C)[C@H](CN(C)C(=O)Nc2ccc(C(F)(F)F)cc2)OCCCC[C@@H](C)O3)cc1 = -10.0 | -48.4[16.7 µM]
Shown for Cc1ccccc1S(=O)(=O)N[C@H]1CC[C@@H](CCn2cc(Cc3ccccc3)nn2)O[C@H]1CO = -2.1 | 0.4[16.7 µM]

(continued)
SMILES	UUG fidelity	HIV Env fusion
CC(C)NC(=O)N[C@@H]1C=C[C@H](CC(=O)NCCCN(C)C)O[C@H]1CO	-10.6	7.1[16.7 µM]
CO[C@H]1CN(C)C(=O)c2ccc(NS(C)(=O)=O)cc2OC[C@H](C)N(Cc2ccccc2)C[C@H]1C	2.6	0.4[16.7 µM]
C[C@@H]1CCCCO[C@@H](CN(C)Cc2ccccc2)[C@@H](C)CN([C@H](C)CO)C(=O)c2cc(NC(=O)Nc3ccccc3)ccc2O1	-12.0	-84.6[16.7 µM]
C/C=C/c1ccc2c(c1)O[C@H](CN(C)C(=O)NC1CCCCC1)[C@@H](C)CN([C@H](C)CO)S2(=O)=O	-5.8	-27.9[16.7 µM]
COCC#Cc1cnc2c(c1)C(=O)N([C@@H](C)CO)C[C@@H](C)[C@H](CN(C)Cc1ccccc1)O2	-2.0	-8.4[16.7 µM]
COc1ccc(S(=O)(=O)Nc2ccc3c(c2)C(=O)N([C@H](C)CO)C[C@@H](C)[C@H](CN(C)Cc2ccccc2)OCCCC[C@H](C)O3)cc1	11.7	0.0[16.7 µM]
COc1ccc(S(=O)(=O)N[C@@H]2CC[C@@H](CC(=O)NCc3ccccc3F)O[C@H]2CO)cc1	-11.3	19.9[16.7 µM]
O=C(N[C@H]1CC[C@H](CCNS(=O)(=O)c2ccc(F)cc2)O[C@@H]1CO)c1cccnc1	-4.6	17.6[16.7 µM]
C/C=C/c1cnc2c(c1)C(=O)N([C@H](C)CO)C[C@H](C)[C@@H](CN(C)S(=O)(=O)c1ccccc1F)O2	8.6	28.1[16.7 µM]
CC(C)c1cn(CC[C@@H]2CC[C@H](NC(=O)C3CCCCC3)[C@H](CO)O2)nn1	100.1*	14.5[16.7 µM]
Cc1noc(C)c1S(=O)(=O)Nc1ccc2c(c1)CC(=O)N([C@@H](C)CO)C[C@H](C)[C@H](CN(C)Cc1ccc(C(=O)O)cc1)O2	-15.9	9.4[16.7 µM]
Cc1ccc(-c2ccc3c(c2)O[C@H](CN(C)C(=O)C2CCC2)[C@H](C)CN([C@@H](C)CO)S3(=O)=O)cc1	8.0	-7.3[16.7 µM]
C[C@H](CO)N1C[C@H](C)[C@H](CN(C)C(=O)Nc2ccc(C(F)(F)F)cc2)Oc2ccc(NC(=O)C3CCCCC3)cc2C1=O	12.2	8.3[16.7 µM]
CC(C)NC(=O)N(C)C[C@@H]1OCCCC[C@@H](C)Oc2ccc(NS(=O)(=O)c3ccc(Cl)cc3)cc2C(=O)N([C@H](C)CO)C[C@@H]1C	16.5	15.7[16.7 µM]
CCNC(=O)Nc1ccc2c(c1)C(=O)N(C)[C@@H]1CC[C@H](CC(=O)NCc3cccc(F)c3)O[C@@H]1CO2	-3.1	1.0[16.7 µM]
Cc1noc(C)c1NC(=O)N(C)C[C@@H]1OCCCC[C@H](C)Oc2ccc(NC(=O)C3CCCCC3)cc2C(=O)N([C@@H](C)CO)C[C@H]1C	-10.2	-4.8[16.7 µM]
C[C@@H]1CN([C@H](C)CO)C(=O)c2cccc(NC(=O)C3CCCCC3)c2O[C@H]1CN(C)Cc1ccc(C(=O)Nc2ccccc2N)cc1	13.0	-23.7[16.7 µM]
CN1CCN(C(=O)C[C@@H]2CC[C@H]3[C@H](COc4ccc(NC(=O)c5ccc(F)c(F)c5)cc4C(=O)N3C)O2)CC1	-7.4	4.1[16.7 µM]

A few values from the list:
Entry of C[C@@H]1CN([C@@H](C)CO)S(=O)(=O)c2ccc(C3=CCCC3)cc2O[C@H]1CN(C)C(=O)c1ccccc1 under HIV Env fusion: 9.9[16.7 µM]
Entry of C[C@H](CO)N1C[C@H](C)[C@H](CN(C)C(=O)Nc2ccc(C(F)(F)F)cc2)Oc2ccc(NC(=O)C3CCCCC3)cc2C1=O under UUG fidelity: 12.2

HIV Env fusion: entries above that show a hit.
SMILES	UUG fidelity	HIV Env fusion
C[C@@H]1CN([C@H](C)CO)C(=O)c2cc(NS(=O)(=O)c3ccc(F)cc3)ccc2O[C@H]1CN(C)Cc1ccc(C(F)(F)F)cc1	-7.2	71.5*[16.7 µM]

Some of the compounds tested (hit frequency here may not be typical).
